Screens from PubChem BioAssay.
Ecoli rRNA inh = inhibitors of bacterial rRNA selective over humanized ribosomes. E. coli WT GFP vs humanized-ribosome RFP mutants, fluorescence, 24 h; active compounds read low; DMSO median 0, no signal -100. GFP signal change (wild-type ribosome), % (test concentration not listed). 350,000 tested, 1.6% active. AID 720706;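 active = significant combined selectivity score with lowered wild-type GFP, culture density cut under 30%, mutant RFP and density less affected; inactive = any of these conditions unmet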; also: one replicate is shown; some compounds called inactive have numbers as strong as hits
FGF22 binding = binders of recombinant human FGF22 by thermal shift | Q9HCT0 | SYPRO orange fluorescence; percent of sucrose octasulfate shift, DMSO zero | calls only at 9.99 µM | 340,000 tested, 1.5% active | AID 651658;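 active = melting point raised past a set limit in the mean and every replicate; three in four hits are not shown here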
Target sequence (Q9HCT0 whole entry, looked up): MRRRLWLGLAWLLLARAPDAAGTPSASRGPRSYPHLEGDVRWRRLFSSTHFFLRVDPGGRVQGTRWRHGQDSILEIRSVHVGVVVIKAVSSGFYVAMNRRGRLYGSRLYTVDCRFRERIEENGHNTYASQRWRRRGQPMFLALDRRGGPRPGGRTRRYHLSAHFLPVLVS
AF4-AF9 inh = blocks AF4 peptide binding to human AF9; 350,000 tested, 0.47% active; AlphaScreen, biotin-AF4 peptide binding to FLAG-AF9; inhibition, % at 10 µM;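 active = every replicate reaching a set inhibition limit, whatever the replicate mean, cut at about 25% in these data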;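 also: 0% = plate neutral control median and 100% = total signal loss; the record names both 10 and 1 µM as test concentration; the first replicate is given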
Target sequence (P42568 whole entry, looked up): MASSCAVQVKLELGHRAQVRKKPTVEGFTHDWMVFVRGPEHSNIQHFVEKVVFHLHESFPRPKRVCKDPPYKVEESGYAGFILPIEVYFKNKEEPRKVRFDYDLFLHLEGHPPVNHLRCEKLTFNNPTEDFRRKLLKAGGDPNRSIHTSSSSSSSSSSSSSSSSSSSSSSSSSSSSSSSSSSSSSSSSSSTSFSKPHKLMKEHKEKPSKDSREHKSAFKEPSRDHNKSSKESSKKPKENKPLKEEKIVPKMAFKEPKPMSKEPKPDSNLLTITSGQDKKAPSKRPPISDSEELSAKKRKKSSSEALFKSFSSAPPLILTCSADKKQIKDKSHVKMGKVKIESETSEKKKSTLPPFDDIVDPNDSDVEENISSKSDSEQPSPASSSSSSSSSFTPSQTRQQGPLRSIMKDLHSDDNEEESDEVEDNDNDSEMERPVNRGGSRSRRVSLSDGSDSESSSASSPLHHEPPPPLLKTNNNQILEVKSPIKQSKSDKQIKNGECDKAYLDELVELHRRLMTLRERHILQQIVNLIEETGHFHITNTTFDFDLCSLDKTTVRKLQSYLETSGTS
Ecoli rRNA inh OD600 = second read-out of Ecoli rRNA inh, no call of its own (marks repeat the call); OD600 change, %; measured here: OD600 growth;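 optical density of the mix in the first replicate; 0 = DMSO median and -100 = no signal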
Ecoli rRNA inh RFP = also measured in Ecoli rRNA inh; calls as there; RFP signal change, %; measured here: RFP humanized mutant strains;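 first replicate; 0 = DMSO median and -100 = no signal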
An asterisk follows results filed as active; i = inactive; + = active, no number; & = joins results of further samples. The list is partial (hit frequency here may not be typical).

Values run as follows: Ecoli rRNA inh | Ecoli rRNA inh OD600 | Ecoli rRNA inh RFP | FGF22 binding | AF4-AF9 inh
(1) CCC(=O)Nc1ccc2c(c1)C(=O)N(C)[C@H]1CC[C@@H](CC(=O)O)O[C@@H]1CO2
    3 | 7 | -1.1 | i | -0.4
(2) C[C@H](CO)N1C[C@H](C)[C@H](CN(C)S(=O)(=O)c2ccc(F)cc2)Oc2ccc(NC(=O)Nc3ccccc3)cc2C1=O
    3 | 3 | -0.2 | i | -8.1
(3) COc1ccccc1-c1cccc(-c2nc(C(=O)Nc3nccs3)cc3c2[C@H](CCO)N(C(C)=O)C3)c1
    -1&-2 | 1&-2 | 3.6&5.8 | i | -1.0&2.1
(4) C[C@H]1CN([C@@H](C)CO)C(=O)Cc2cc(NS(C)(=O)=O)ccc2O[C@@H]1CN(C)S(C)(=O)=O
    0 | 6 | -1.5 | i | -0.6
(5) CCCC#Cc1ccc2c(c1)O[C@H](CN(C)C(C)=O)[C@@H](C)CN([C@@H](C)CO)S2(=O)=O
    0 | -6 | -5.2 | + | 1.1
(6) CN(C)CC#Cc1ccc([C@H]2[C@@H](CO)N3CCCCN(C(=O)C4CCC4)C[C@H]23)cc1
    8 | 24 | 0.1 | i | -3.8
(7) C[C@H](CO)N1C[C@H](C)[C@H](CN(C)C(=O)Nc2ccc(F)cc2)Oc2ccc(NC(=O)Cc3cn(C)c4ccccc34)cc2C1=O
    -3 | -3 | -1.6 | i | 1.4
(8) C[C@H]1CN([C@@H](C)CO)C(=O)c2cc(C#CCN(C)C)cnc2O[C@H]1CN(C)Cc1ccc(-c2ccccc2)cc1
    -4 | 3 | 5.7 | i | 22
(9) COC(=O)[C@]12C[C@H](CC(=O)NCc3ccc(OC)c(OC)c3)C(=O)N(Cc3ccccc3)C1=C[C@H](C1CCCC1)O[C@@H]2C
    -12 | -16 | 3.7 | i | 2.4
(10) C[C@@H]1CN([C@@H](C)CO)S(=O)(=O)c2ccc(-c3ccncc3)cc2O[C@H]1CN(C)C(=O)CC1CC1
    -4 | -11 | -3.7 | i | -1.3
(11) CC(C)C[C@H]1CN(CCCC[C@H]2CNC(=O)C(=O)N2Cc2ccccc2)C(=O)C(=O)N1CCc1ccccc1
    -24 | -29 | 3.5 | i | 3.5
(12) C=CCn1c(-c2ccccn2)n[nH]c1=S
    7 | 2 | -0.1 | i | -8.4
(13) CC(C)NC(=O)Nc1ccc2c(c1)C(=O)N([C@@H](C)CO)C[C@@H](C)[C@H](CN(C)C(=O)C1CCCCC1)OCCCC[C@@H](C)O2
    3 | 7 | 0.7 | i | -3.2
(14) C[C@@H]1CCCCO[C@H](CN(C)Cc2ccc3c(c2)OCO3)[C@H](C)CN([C@H](C)CO)C(=O)c2cc(NC(=O)Nc3ccc4c(c3)OCO4)ccc2O1
    -4 | -13 | 19 | i | 22
(15) CCOc1ccccc1C(=O)NCC(=O)NNC(=O)c1csc(N2CCOCC2)n1
    -8 | -14 | 2.1 | i | -1.8
(16) C[C@@H]1CN([C@H](C)CO)C(=O)Cc2cc(NC(=O)Cc3cn(C)c4ccccc34)ccc2O[C@H]1CN(C)S(=O)(=O)c1ccccc1
    -2 | -1 | 2.5 | i | -1.8
(17) CC(C)C[C@H]1CNC(=O)C(=O)N1CC1CCN(CCc2ccccc2)CC1
    5 | -3 | -1.6 | i | 0.7
(18) CC(=O)N(C)C[C@@H]1Oc2ncc(-c3ccccc3F)cc2C(=O)N([C@@H](C)CO)C[C@@H]1C
    0 | -5 | -0.4 | i | -3.0
(19) CCS(=O)(=O)N1CC2(C1)[C@H](c1ccccc1)[C@H](CO)N2CCC(F)(F)F
    4 | -1 | -1.3 | i | -0.3
(20) C[C@@H]1CN([C@H](C)CO)C(=O)c2cc(C3=CCCC3)cnc2O[C@@H]1CN(C)C(=O)c1ccc2c(c1)OCO2
    7 | 19 | -2.1 | i | -3.4
(21) CO[C@H]1CN(C)C(=O)c2cc(NS(=O)(=O)CC(F)(F)F)ccc2OC[C@@H](C)N(C(=O)NC(C)C)C[C@H]1C
    1 | 4 | -1.5 | i | -1.4
(22) COc1ccc2c3c(n(C)c2c1)[C@@H](CO)N(Cc1ccccc1Cl)CC31CCN(C(=O)CN(C)C)CC1
    -2 | -4 | 2.8 | i | 16
(23) Cc1noc(C)c1NC(=O)N[C@@H]1CC[C@H](CCNC(=O)C2CCC2)O[C@@H]1CO
    0 | 5 | -0.3 | i | 0.1
(24) CC(C)c1ccccc1NC(=O)Nc1nc(C(N)Cc2ccc(C(F)(F)F)cc2)cs1 (centres undefined)
    13 | 21 | -3.8 | i | -0.5
(25) Cc1cccc(C)c1-n1nnnc1C(c1cc2ccccc2o1)N1CCN(C/C=C/c2ccccc2)CC1 (centres undefined)
    9 | 30 | 2.4 | i | 8.0
(26) C[C@@H]1CCCCO[C@H](CN(C)C(=O)C2CCCCC2)[C@@H](C)CN([C@@H](C)CO)C(=O)c2cc(NS(C)(=O)=O)ccc2O1
    -1 | 2 | 0.5 | i | -17
(27) CO[C@H]1CN(C)C(=O)c2ccc(NS(=O)(=O)c3ccccc3)cc2OC[C@H](C)N(Cc2nccs2)C[C@H]1C
    -3 | -10 | -0.6 | i | 3.3
(28) Cc1ccc(S(=O)(=O)Nc2ccc3c(c2)CC(=O)N([C@@H](C)CO)C[C@H](C)[C@H](CN(C)S(=O)(=O)c2ccc(C)cc2)O3)cc1
    2 | -2 | 3.3 | i | -0.1
(29) CC(C)NC(=O)N1C[C@@H]2[C@H](c3ccccc31)[C@H](CO)N2C(=O)Nc1cccc(F)c1
    4 | 11 | -1.8 | i | -2.9
(30) COc1ccc(S(=O)(=O)Nc2ccc3c(c2)C(=O)N([C@@H](C)CO)C[C@H](C)[C@H](CN(C)S(=O)(=O)c2ccc(Cl)cc2)OCCCC[C@H](C)O3)cc1
    0 | 6 | 0.2 | i | -2.2

(continued)
cpd | Structure | Ecoli rRNA inh | Ecoli rRNA inh OD600 | Ecoli rRNA inh RFP | FGF22 binding | AF4-AF9 inh
31 | CC(C)C(=O)Nc1ccc2c(c1)C(=O)N(C)[C@H]1CC[C@H](CC(=O)NCc3ccc(F)cc3)O[C@H]1CO2 | -2 | -11 | -1.3 | i | -1.0
32 | CN(C)c1ccc2c(c1)[C@@H]1C[C@@H](CC(=O)N3CCc4ccccc4C3)O[C@@H](CO)[C@@H]1O2 | 1 | 0 | 1.3 | i | 7.9
33 | COC(=O)[C@]12C[C@H](CC(=O)N3CCCCC3)C(=O)N(Cc3ccccc3)C1=C[C@H](C(C)C)O[C@@H]2C1CC1 | -3 | -16 | 4.9 | i | -5.9
34 | C[C@H]1CN([C@@H](C)CO)C(=O)c2cc(-c3ccccc3F)cnc2O[C@H]1CN(C)C(=O)NC1CCCCC1 | 0 | 4 | -4.1 | i | 1.4
35 | N#C[C@H]1[C@@H](c2ccccc2/C=C/c2ccccc2)[C@@H](CO)N1S(=O)(=O)c1ccc(F)cc1 | 1 | 1 | -1.4 | i | 1.2
36 | CS(=O)(=O)c1ccc(Nc2nc(C(N)c3ccccc3Cl)cs2)cc1 (centres undefined) | -1 | 7 | -2.5 | i | 0.5
37 | Cc1ccc([C@H]2C[C@@H](O)[C@H](n3cc(C4CC4)nn3)CN2CC2CCCCC2)cc1 | 0 | 4 | -4.4 | i | -4.0
38 | O=C(C[C@@H]1CC[C@H]2NC[C@@H](O)COC[C@@H]2O1)Nc1ccccc1 | 2 | -2 | -3.5 | i | -0.7
39 | C[C@@H]1CCCCO[C@@H](CN(C)C(=O)Nc2ccc3c(c2)OCO3)[C@@H](C)CN([C@@H](C)CO)C(=O)c2cc(NC(=O)NC3CCCCC3)ccc2O1 | 4 | 7 | -1.0 | i | 2.9
40 | COc1ccc(S(=O)(=O)N[C@H]2CC[C@@H](CC(=O)N3CCc4ccccc4C3)O[C@@H]2CO)cc1 | -1 | -3 | -1.1 | i | -1.3
41 | COc1ccc2c3c(n(C)c2c1)[C@@H](CO)N(C)CC31CN(C(=O)CN2CCOCC2)C1 | 4 | 1 | -3.2 | i | 1.2
42 | C[C@H](CO)N1C[C@H](C)[C@H](CN(C)Cc2ccc3c(c2)OCO3)Oc2ccc(NC(=O)C3CCCCC3)cc2CC1=O | -2 | -5 | 1.8 | i | -0.4
43 | C[C@H]1CN([C@@H](C)CO)S(=O)(=O)c2ccc(C#Cc3cccc(F)c3)cc2O[C@H]1CN(C)S(=O)(=O)c1cn(C)cn1 | 0 | -1 | 5.6 | i | -0.7
44 | CCNC(=O)[C@H]1[C@H](CO)[C@H]2Cn3c(ccc(-c4ccncc4)c3=O)[C@@H]1N2CC1CC1 | 3 | 3 | -4.0 | i | -0.8
45 | COc1ccc2c3c([nH]c2c1)[C@H](CO)N(C(=O)c1cccc(F)c1)CC31CCN(C(=O)CC2CC2)CC1 | -1 | 1 | -3.3 | i | -1.0
46 | COc1cccc(-c2ccc([C@@H]3[C@@H](CO)N4C(=O)CN(C(=O)NC(C)C)C[C@@H]34)cc2)c1 | 1 | -7 | 0.6 | i | 1.3
47 | CC(C)(C)[S@@](=O)N1Cc2cc(C(=O)NCC(F)(F)F)nc(-c3cccc(-c4cccc(F)c4)c3)c2[C@H]1CCO | -2 | -9 | 26 | i | 2.4
48 | CC(C)NC(=O)N(C)C[C@@H]1Oc2c(NS(=O)(=O)c3ccc(Cl)cc3)cccc2C(=O)N([C@H](C)CO)C[C@@H]1C | -7 | 5 | 1.4 | i | -6.6
49 | CCCC(=O)Nc1ccc2c(c1)C(=O)N(C)C[C@@H](OC)[C@H](C)CN(Cc1nccs1)[C@@H](C)CO2 | 0 | -3 | -3.0 | i | -2.5
50 | Cc1ccc(S(=O)(=O)Nc2cccc3c2O[C@@H](CN(C)S(=O)(=O)c2cn(C)cn2)[C@H](C)CN([C@@H](C)CO)C3=O)cc1 | 3 | 5 | 0.1 | i | -2.6

Values by screen from above:
Entries 34–43 in Ecoli rRNA inh RFP read -4.1, -1.4, -2.5, -4.4, -3.5, -1.0, -1.1, -3.2, 1.8, 5.6
Entries 34–43 in AF4-AF9 inh read 1.4, 1.2, 0.5, -4.0, -0.7, 2.9, -1.3, 1.2, -0.4, -0.7
Entries 34–43 in FGF22 binding read i, i, i, i, i, i, i, i, i, i

Sorted by length of the SMILES (highest first): 3 of the compounds above.
cpd | Structure | Ecoli rRNA inh | Ecoli rRNA inh OD600 | Ecoli rRNA inh RFP | FGF22 binding | AF4-AF9 inh
39 | C[C@@H]1CCCCO[C@@H](CN(C)C(=O)Nc2ccc3c(c2)OCO3)[C@@H](C)CN([C@@H](C)CO)C(=O)c2cc(NC(=O)NC3CCCCC3)ccc2O1 | 4 | 7 | -1.0 | i | 2.9
13 | CC(C)NC(=O)Nc1ccc2c(c1)C(=O)N([C@@H](C)CO)C[C@@H](C)[C@H](CN(C)C(=O)C1CCCCC1)OCCCC[C@@H](C)O2 | 3 | 7 | 0.7 | i | -3.2
19 | CCS(=O)(=O)N1CC2(C1)[C@H](c1ccccc1)[C@H](CO)N2CCC(F)(F)F | 4 | -1 | -1.3 | i | -0.3

Additional results follow:
cpd | Structure | Ecoli rRNA inh | Ecoli rRNA inh OD600 | Ecoli rRNA inh RFP | FGF22 binding | AF4-AF9 inh
51 | COc1ccc2c3c([nH]c2c1)[C@H](CO)N(Cc1nccs1)CC31CCN(C(=O)C2CCCC2)CC1 | 1 | 18 | 1.9 | i | 2.3
52 | COCCNC(=O)C1Cc2c(-c3cccc(NC(C)=O)c3)ccnc2O1 (centres undefined) | 4 | 4 | -4.6 | i | 1.8
53 | COc1ccccc1S(=O)(=O)N[C@@H]1CC[C@@H](CCn2cc(C3CCCC3)nn2)O[C@@H]1CO | -2 | -3 | -3.6 | i | 0.8
54 | CC(C)NC(=O)N(C)C[C@@H]1OCCCC[C@@H](C)Oc2ccc(NC(=O)CCCN(C)C)cc2C(=O)N([C@@H](C)CO)C[C@@H]1C | 4 | 1 | -1.4 | i | -20
55 | CO[C@@H]1CN(C)C(=O)c2cc(NC(=O)C3CCOCC3)ccc2OC[C@@H](C)N(C(C)=O)C[C@@H]1C | 0 | 1 | -1.3 | i | 1.7
56 | O=C(NC1CCCCC1)C(C1CC1)n1c(=O)c(-c2ccccc2)nc2ccccc21 (centres undefined) | -21 | -39 | -6.7 | i | 13
57 | CC(=O)N(C)C[C@@H]1Oc2cc(-c3ccc(C#N)cc3)ccc2S(=O)(=O)N([C@@H](C)CO)C[C@@H]1C | -3 | 2 | -3.0 | i | -0.9
58 | Cc1noc(C)c1S(=O)(=O)N(C)C[C@H]1Oc2ccc(NS(=O)(=O)c3ccc(Cl)cc3)cc2C(=O)N([C@@H](C)CO)C[C@H]1C | 4 | -13 | 1.2 | i | -1.0
59 | C[C@@H]1CCCCO[C@@H](CN(C)Cc2ccncc2)[C@H](C)CN([C@@H](C)CO)C(=O)c2cc(NS(=O)(=O)c3cccs3)ccc2O1 | -1 | -7 | 4.2 | i | 0.2
60 | C[C@@H]1CN([C@@H](C)CO)C(=O)c2cc(NS(C)(=O)=O)ccc2O[C@@H]1CN(C)C | 2 | 7 | -1.0 | i | -3.6
61 | C=CCC(=O)N1CCC(n2nccc2NC(=O)c2ccc3c(c2)OCO3)CC1 | 0 | 9 | -6.5 | i | -2.1
62 | Cc1ccc(S(=O)(=O)N(C)C[C@@H]2Oc3c(NC(=O)C4CCCCC4)cccc3C(=O)N([C@@H](C)CO)C[C@H]2C)cc1 | -2 | 3 | 2.6 | i | 3.6
